High-throughput results as filed in PubChem.
RanGTP-Impb inh: disruptors of Ran-importin-beta complex formation – biochemical, FRET, CFP-Ran, YFP-importin-beta, homogeneous, primary screen | actives 1.1% (n = 300,000) | inhibition, % (test concentration not listed) | cell-free CFP-Ran/YFP-importin-beta FRET ratio;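 active means most replicates above 15%; inconclusive means exactly half above 15%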;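 further: 0% = DMSO wells and 100% = Ran loaded with GDP instead of GTP; wells of about 40 µL received 100 nL stock; the first replicate is given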
T cruzi repl: T. cruzi replication inhibition. AID 1885. T. cruzi beta-gal in NIH3T3, luminescence, 90 h. actives 1.4% (n = 300,000). inhibition, % (concentration not given with the values);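 active means mean inhibition across valid replicates above about 55%, limit read from the data; inconclusive means mean below that limit but half or more replicates reach it; inactive means mean below it, under half of replicates reach it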;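 further: signal also drops with host cell toxicity which is not excluded here; 0% = plate median of DMSO wells and 100% = zero luminescence signal; higher percent means less beta-gal luminescence so fewer parasites; stock transfer was 50 nL into about 50 µL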
rRNA inh HTS: inhibitors of bacterial rRNA selective over humanized ribosomes; E. coli WT GFP vs humanized-ribosome RFP mutants, fluorescence, 24 h; active compounds read low; DMSO median 0, no signal -100; AID 720706; GFP signal change (wild-type ribosome), % (test concentration not listed); actives 1.6% (n = 350,000);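 active means significant combined selectivity score with lowered wild-type GFP, culture density cut under 30%, mutant RFP and density less affected; inactive means any of these conditions unmet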; further: one replicate is shown; some compounds called inactive have numbers as strong as hits
Beta apoptosis: beta cell apoptosis inhibition | INS-1E cytokine-induced death, ATP luminescence, 48 h; percent of positive-control rescue, neutral wells zero | protection from apoptosis, % (concentration not given with the values) | actives 0.8% (n = 300,000) | AID 435005;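 active means all replicates at 75% or more, or half of them and the mean; inconclusive means half reach 75% but not the mean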;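 further: 0% = cytokine-treated negative control wells and 100% = positive control rescue; higher means more ATP so stronger rescue from cytokine killing; wells of about 40 µL received 100 nL stock; the first replicate is given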
ALR inh: blocks human ALR sulfhydryl oxidase activity; P55789; purified ALR, DTT oxidation, H2O2 HRP-luminol luminescence; inhibition, % (concentration not given with the values); actives 3.8% (n = 290,000); AID 485317;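 active means mean and each replicate at 75% or more; inconclusive means only one of the two met; inactive means neither met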;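 further: stock transfer was 7.5 nL into about 7.5 µL; 0% = neutral wells and 100% = wells with inactivated enzyme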
Target sequence (P55789 whole entry, looked up): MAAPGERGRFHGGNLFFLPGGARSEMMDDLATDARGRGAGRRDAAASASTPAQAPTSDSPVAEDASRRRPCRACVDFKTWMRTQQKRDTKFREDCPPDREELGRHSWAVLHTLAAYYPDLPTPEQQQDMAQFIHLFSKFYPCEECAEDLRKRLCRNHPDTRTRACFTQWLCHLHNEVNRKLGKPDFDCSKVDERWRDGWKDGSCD
MLL AF4-AF9 inh: inhibitors of human MLL-AF4/AF9 interaction | P42568 | AlphaScreen, biotin-AF4 peptide binding to FLAG-AF9 | inhibition, % at 10 µM | actives 0.47% (n = 350,000);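 active means every replicate reaching a set inhibition limit, whatever the replicate mean, cut at about 25% in these data; inconclusive means mean inhibition reaches that limit but some replicates miss it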;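 further: 0% = plate neutral control median and 100% = total signal loss; the record names both 10 and 1 µM as test concentration; the first replicate is given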
Target sequence (P42568 whole entry, looked up): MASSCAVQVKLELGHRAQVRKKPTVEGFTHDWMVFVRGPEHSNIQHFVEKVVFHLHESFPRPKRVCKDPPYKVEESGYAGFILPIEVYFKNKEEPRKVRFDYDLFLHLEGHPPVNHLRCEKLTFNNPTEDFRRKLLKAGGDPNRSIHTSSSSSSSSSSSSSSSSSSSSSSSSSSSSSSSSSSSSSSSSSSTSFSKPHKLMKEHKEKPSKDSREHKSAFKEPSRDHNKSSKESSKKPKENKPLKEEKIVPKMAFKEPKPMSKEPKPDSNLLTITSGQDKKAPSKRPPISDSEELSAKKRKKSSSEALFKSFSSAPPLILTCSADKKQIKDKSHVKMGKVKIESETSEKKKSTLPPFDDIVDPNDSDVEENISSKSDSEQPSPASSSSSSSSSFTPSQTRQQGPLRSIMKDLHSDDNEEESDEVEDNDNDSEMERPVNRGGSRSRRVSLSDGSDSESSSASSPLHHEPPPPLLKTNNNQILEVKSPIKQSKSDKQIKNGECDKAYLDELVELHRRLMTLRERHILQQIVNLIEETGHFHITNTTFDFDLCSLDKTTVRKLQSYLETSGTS
FGF22 binding: FGF22 (human) thermal shift binding; recombinant FGF22 thermal shift, SYPRO orange fluorescence; percent of sucrose octasulfate shift, DMSO zero; calls only at 9.99 µM; actives 1.5% (n = 340,000);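 active means melting point raised past a set limit in the mean and every replicate; inconclusive means no clear call; three in four hits are not shown here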
Target sequence (Q9HCT0 whole entry, looked up): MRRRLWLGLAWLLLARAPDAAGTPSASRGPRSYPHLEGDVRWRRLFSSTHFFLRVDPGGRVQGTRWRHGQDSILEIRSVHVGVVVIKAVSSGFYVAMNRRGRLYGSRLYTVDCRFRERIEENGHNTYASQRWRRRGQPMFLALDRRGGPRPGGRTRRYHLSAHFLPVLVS
Calb FLC: C. albicans growth modulation with fluconazole; growth inhibition, % (concentration not given with the values); actives 0.57% (n = 300,000); AID 1979; C. albicans CaCi-2 (fluconazole-resistant clinical isolate) + fluconazole, Alamar Blue growth, 48 h;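 active means most replicates above 75%; inconclusive means exactly half above 75%; inactive means most below 75%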;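 further: all wells also contain fluconazole at 8 µg/ml as a sub-toxic cotreatment; 0% = median of DMSO wells and 100% = median of geldanamycin control wells; wells of about 8 µL received 7.5 nL stock; the first replicate is given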
rRNA inh HTS OD600: further read-out of rRNA inh HTS, marked with its call; OD600 change, %; measured here: OD600 growth;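 optical density of the mix in the first replicate; 0 = DMSO median and -100 = no signal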
rRNA inh HTS RFP: further read-out of rRNA inh HTS, marked with its call; RFP signal change, %; measured here: RFP humanized mutant strains;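 first replicate; 0 = DMSO median and -100 = no signal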
* marks the source's active call; other numbers are inactive results; i = inactive; ? = inconclusive; / = not tested or not shown; & = joins results of further samples.

SMILES	RanGTP-Impb inh	T cruzi repl	rRNA inh HTS	rRNA inh HTS OD600	rRNA inh HTS RFP	Beta apoptosis	ALR inh	MLL AF4-AF9 inh	FGF22 binding	Calb FLC
COc1ccc(S(=O)(=O)NCC(=O)Nc2ccc3c(c2)OCCO3)cc1OC	5.0	-5	-1	-1	-3.0	/	-13	-0.5	i	-4
Cc1cc(C)nc(Nc2ncc(O)n2-c2ccc(C)c(C)c2)n1	3.2	-9	/	/	/	6	4	/	/	-10
CC(C)N1C(=O)CC2(CC[N+](C)(CCOC(=O)C(c3ccccc3)c3ccccc3)CC2)C1=O (stereo not drawn)	1.3	-14	/	/	/	-6	/	/	/	3
CCN1C(=O)CCC(C(=O)O)C1c1ccc(OC)cc1 (stereo not drawn)	-3.2	-5	5	5	-3.0	-3	-7	1.0	i	-10
CCC(C)Sc1ccc([C@@H]2[C@@H]3C(=O)N(CC)C(=O)[C@@H]3[C@]3(C(=O)OC)CCCCN23)cc1 (stereo partly drawn)	/	/	9	8	4.1	0	-1	0.1	i	/
c1ccc2c(c1)CCCc1cc(NCCN3CCOCC3)nnc1-2	/	/	/	/	/	2	-5	6.7	i	/
Cc1ccc(NC(=O)COc2ccc(/C=C3/SC(=Nc4ccccc4)N(Cc4cccnc4)C3=O)cc2)cc1	-0.1	18	/	/	/	15	-2	/	/	6
CCS(=O)(=O)N1CCN(C(=O)CCC2CCCC2)CC1	-2.0	-12	/	/	/	4	-8	/	/	?
CCO[C@H]1OC(C(=O)NC2CC2)=C[C@@H](c2ccc(C(F)(F)F)cc2)[C@@H]1CCCO	-2.1	-14	-8	-10	0.9	4	-7	-3.9&1.1	i	0
C/C(=N\NS(=O)(=O)c1ccc(C)cc1)c1cc2ccccc2oc1=O	-0.8	-5	5	1	1.5	2	16	-4.7	i	-2
CCCSC1=C(C#N)C(c2ccc(O)c(OC)c2)CC(=O)N1 (stereo not drawn)	4.1	-2	-3	7	-0.9	-1	58	1.1	i	-7
Nc1cc(=O)[nH]c(SCC(=O)Nc2ccc(F)c(Cl)c2)n1	0.9	-1	/	/	/	-8	32	/	/	-6
Cc1ccccc1Nc1nc(N)nc(COC(=O)c2ccccc2)n1	1.9	-17	/	/	/	-2	2	/	/	-8
Cc1cccc2cc(COC(=O)c3cccc([N+](=O)[O-])c3)c(=O)[nH]c12	3.7	-9	/	/	/	-3	-2	/	/	6
COc1ccc(S(=O)(=O)N(C)C[C@@H]2Oc3c(NS(C)(=O)=O)cccc3C(=O)N([C@@H](C)CO)C[C@H]2C)cc1	/	/	-2&6	4&16	0.1&-1.1	-5	/	-2.0&0.2	i	/
CCOC(=O)c1nn(-c2ccccc2)c(=O)cc1SC(C)C	5.3	-25	/	/	/	3	-4	/	/	-1
CCOc1cc(C(=O)N2CCC(CC3CC(c4ccc(Cl)cc4)=NO3)(C(=O)NCC3CCCCC3)CC2)cc(OCC)c1OCC (stereo not drawn)	-1.0	27	12	6	1.3	0	-11	-2.0	i	21
O=C(CNC(=O)c1ccc(Br)cc1)OCC(=O)c1ccccc1	-1.0	-12	-7	-16	0.8	-9	0	-1.7	i	-12
COC(Cc1ccccc1N1CCCC1=O)OC	4.0	-9	10	7	0.9	/	1	6.8	i	-6
COc1cccc(C2C(C(C)=O)=C(O)C(=O)N2Cc2ccco2)c1 (stereo not drawn)	-2.8	4	/	/	/	-2	1	/	/	32
CN(C(=O)COC(=O)CCCc1c[nH]c2ccccc12)c1c(N)n(Cc2ccccc2)c(=O)[nH]c1=O	/	/	-4	-7	3.7	-9	0	1.3	i	/
CCOC(=O)NC(=O)CSc1nnnn1-c1ccccc1	3.4	-5	/	/	/	1	-1	/	/	4
COc1ccc(OC)c(NC(=O)CSc2nc3[nH]c(=O)cc(O)c3s2)c1	/	/	2	6	-2.2	0	-18	-3.5	i	/
Cc1ccc(S(=O)(=O)CCC(=O)OCC(=O)c2cc(C)ccc2C)cc1	0.8	2	2	1	-1.2	-4	-4	-23	i	3
COc1ccc(N(CC(=O)NCc2cccnc2)S(=O)(=O)c2ccccc2[N+](=O)[O-])c(OC)c1	-3.1	12	10	-8	-2.5	0	-33	-0.4	i	6
COc1ccccc1CCC(=O)Nc1cccc(S(=O)(=O)N2CCCC2)c1	-0.2	0	-8	-25	0.6	-6	-4	-3.0	i	-1
CNNC(=S)Nc1cccc(SC)c1	3.9	-3	-20	20	7.0	1	/	/	i	1
COc1ccc(C2C(Oc3ccccc3)C(=O)N2c2cc(C)ccc2C)cc1OC (stereo not drawn)	2.8	60*	/	/	/	2	-1	/	/	31
O=C(NCc1cccs1)C1CCN(S(=O)(=O)N2CCCC2)CC1	-0.3	-16	/	/	/	-7	-12	/	/	-25
CSc1cccc(NC(=S)N(CCCN2CCCC(C)C2)Cc2cccs2)c1 (stereo not drawn)	-0.6	18	-30	-27	-5.4	-6	-61	16	i	11

Some of the entries so far, with each value named.
COc1cccc(C2C(C(C)=O)=C(O)C(=O)N2Cc2ccco2)c1 (stereo not drawn)
  RanGTP-Impb inh: -2.8 | T cruzi repl: 4 | rRNA inh HTS: / | rRNA inh HTS OD600: / | rRNA inh HTS RFP: / | Beta apoptosis: -2 | ALR inh: 1 | MLL AF4-AF9 inh: / | FGF22 binding: / | Calb FLC: 32
CN(C(=O)COC(=O)CCCc1c[nH]c2ccccc12)c1c(N)n(Cc2ccccc2)c(=O)[nH]c1=O
  RanGTP-Impb inh: / | T cruzi repl: / | rRNA inh HTS: -4 | rRNA inh HTS OD600: -7 | rRNA inh HTS RFP: 3.7 | Beta apoptosis: -9 | ALR inh: 0 | MLL AF4-AF9 inh: 1.3 | FGF22 binding: i | Calb FLC: /
CCOC(=O)NC(=O)CSc1nnnn1-c1ccccc1
  RanGTP-Impb inh: 3.4 | T cruzi repl: -5 | rRNA inh HTS: / | rRNA inh HTS OD600: / | rRNA inh HTS RFP: / | Beta apoptosis: 1 | ALR inh: -1 | MLL AF4-AF9 inh: / | FGF22 binding: / | Calb FLC: 4

Later entries:
SMILES	RanGTP-Impb inh	T cruzi repl	rRNA inh HTS	rRNA inh HTS OD600	rRNA inh HTS RFP	Beta apoptosis	ALR inh	MLL AF4-AF9 inh	FGF22 binding	Calb FLC
CC(=O)Nc1ccc(/C=N/NS(=O)(=O)c2cc(C)ccc2C)cc1	-1.4	4	7	-2	-4.9	-7	1	3.0	i	3
Cc1cc(Cl)ccc1OCCCC(=O)N1CCOCC1	-1.3	-17	/	/	/	-1	-11	/	/	10
CCN1CCN(CC(O)COC(c2ccccc2)c2ccccc2C)CC1 (stereo not drawn)	-4.2	11	10	17	1.2	-2	/	4.7	i	-5
Cc1ccc(C(=O)Nc2cccc(N3C(=O)C4CCC(C)CC4C3=O)c2)cc1 (stereo not drawn)	?	22	-10	-7	-2.2	2	1	0.3	i	-18
O=C(COc1ccccc1)NCCn1ccc2ccccc21	-1.7	-5	/	/	/	-8	-2	/	/	28
O=C(N/N=C\c1ccc(S(=O)(=O)O)o1)c1ccc2c(c1)OCO2	1.1	8	1	0	2.2	-6	-3	3.6	i	-2
CCN(CC)C(=O)CSC1=C(C#N)C(c2cccs2)C=C(C)N1 (stereo not drawn)	-1.5	10	/	/	/	-4	-2	/	/	-8
O=C(NC1CCCCC1)c1ccc(S(=O)(=O)c2ccccc2Cl)c([N+](=O)[O-])c1	-1.9	-12	/	/	/	-4	3	/	/	-1
COc1ccc(CCNC(=O)C2CCN(Cc3nc(-c4ccccc4F)oc3C)CC2)cc1OC	0.6	2	/	/	/	0	-3	/	/	4
Cc1coc2c(C)c3oc(=O)c(CCC(=O)NCCCN4CCCC4=O)c(C)c3cc12	3.9	11	/	/	/	/	17	-3.5	i	-3
CC(Nc1nc(-c2ccccc2O)nc2ccccc12)c1ccccc1 (stereo not drawn)	3.2	24	5	6	12	8	-4	4.9	i	7
O=C(Nc1nnc(S(=O)(=O)N2CCCCC2)s1)c1cccc(Br)c1	2.5	-7	/	/	/	-4	-3	/	/	-5
COC1CCCN(C(=O)c2cccc(OC3CCN(S(C)(=O)=O)CC3)c2)C1 (stereo not drawn)	-0.8	-1	8	10	-3.8	-3	-4	-4.8	i	-2
N#Cc1c(-c2ccc(Cl)cc2)ccnc1N1CCOCC1	1.7	0	-16	-32	-11	9	11	-6.0	i	?
Cc1cc(C)c(NC(=S)N(CCN2CCCCC2)Cc2ccco2)c(C)c1	?	2	4	-26	-1.7	1	/	2.1	i	-2
Cc1cc(C(=O)N/N=C/c2cccc3ccccc23)c(C)o1	2.5	-3	-2	-4	0.5	6	-2	-0.1	i	9
Cc1cc(C)c2nc(-c3ccccn3)cc(C(=O)N3CCCC3)c2c1	0.9	2	-1	3	0.6	0	-8	-0.6	i	8
NC(=O)C1CCN(C(=O)Cc2ccc([N+](=O)[O-])cc2)CC1	3.3	-5	15	6	-4.8	-5	1	5.0	i	-11
O=C(c1cn2ccccc2n1)N1CCCC(Nc2ccc(F)c(F)c2)C1 (stereo not drawn)	2.0	13	0	1	1.2	4	2	-7.2	i	-8
O=C(CCc1nc(-c2ccccc2Cl)no1)NCc1ccco1	-4.8	-9	14	8	1.3	-1	/	-1.5	i	5
Cc1ccc(-c2nc(C(=O)NC3CCCCCC3)no2)cc1	-4.1	-9	-18	-32	-2.4	-1	24	-2.3	i	-9
Cc1[nH]c(SCC(=O)c2c(N)n(C)c(=O)n(C)c2=O)nc1Cc1ccccc1	/	/	9	10	4.7	-1	6	-0.2	i	/
Cc1ccc(S(=O)(=O)NC2c3cccc4cccc(c34)C2Sc2ncccn2)cc1 (stereo not drawn)	4.0	38	/	/	/	/	12	/	/	3
O=C(NC1CCCC1)c1cccc(S(=O)(=O)N2CCCCC2)c1	-0.1	-4	/	/	/	-5	-1	/	/	0
Nn1c(SCc2ccccn2)nncc1=O	5.8	-14	5	3	-0.6	5	65	-4.1	i	-6
CCN1CCN(C(=S)NCC2CCCO2)CC1 (stereo not drawn)	?	-9	10	-3	-0.3	0	-11	-1.4	i	-12
Cc1ccc(C)c(N(C(=O)c2csnn2)C(C(=O)NC2CCCCC2)c2cccnc2)c1 (stereo not drawn)	?	-1	4	5	-3.6	0	-4	8.2	i	32
Cc1cc(Cl)c2oc(C(=O)NC3CCC(O)CC3)c(C)c2c1 (stereo not drawn)	?	6	-20	-18	0.5	-1	/	-0.9	i	17
COc1ccc(CNC(=O)C2CCC(CNc3c(N4CCC(C)CC4)c(=O)c3=O)CC2)cc1 (stereo not drawn)	-0.4	-9	8	8	0.3	3	-2	3.6	i	-1
CN(C)C(=S)c1ccc(N(C)C)cc1	?	-2	8	2	-2.6	-3	14	-29	/	-1
O=C(Nc1ccc2ccccc2c1)Nc1ccc2snnc2c1	-1.4	58*	/	/	/	66	-14	/	/	2

Not all compounds are listed; count on the stated rates, not on these rows.
